MLL AF4-AF9 inh – blocks AF4 peptide binding to human AF9; inhibition, % at 10 µM; AlphaScreen, biotin-AF4 peptide binding to FLAG-AF9; actives 0.47% (n = 350,000); P42568;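 active = every replicate reaching a set inhibition limit, whatever the replicate mean, cut at about 25% in these data; inconclusive = mean inhibition reaches that limit but some replicates miss it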;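 note: 0% = plate neutral control median and 100% = total signal loss; the record names both 10 and 1 µM as test concentration; the first replicate is given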
Target sequence (P42568 whole entry, looked up): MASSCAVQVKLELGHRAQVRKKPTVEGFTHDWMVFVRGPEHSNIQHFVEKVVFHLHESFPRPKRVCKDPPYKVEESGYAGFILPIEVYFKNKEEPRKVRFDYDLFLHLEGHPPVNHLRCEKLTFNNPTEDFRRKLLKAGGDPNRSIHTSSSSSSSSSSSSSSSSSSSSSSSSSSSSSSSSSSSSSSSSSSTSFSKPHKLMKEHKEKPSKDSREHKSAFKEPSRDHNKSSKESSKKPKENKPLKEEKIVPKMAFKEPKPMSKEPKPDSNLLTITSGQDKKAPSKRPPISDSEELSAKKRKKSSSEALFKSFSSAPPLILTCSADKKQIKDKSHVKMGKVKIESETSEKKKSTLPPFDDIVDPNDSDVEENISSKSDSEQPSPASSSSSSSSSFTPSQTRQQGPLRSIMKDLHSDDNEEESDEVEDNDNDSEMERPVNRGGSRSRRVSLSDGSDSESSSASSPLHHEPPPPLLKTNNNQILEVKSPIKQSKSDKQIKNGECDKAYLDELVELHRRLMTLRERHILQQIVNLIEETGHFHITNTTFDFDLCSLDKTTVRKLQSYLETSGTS
A1 inh – inhibitors of the anti-apoptotic protein A1, read as caspase activation. caspase activation, % (no concentration beside the values). actives 0.066% (n = 330,000). MEF A1-2A-BIM cells, Caspase-Glo 3/7 luminescence, 3 h; percent of clofoctol response, vehicle zero;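 active = over half of replicate activation scores above 10%, or exactly half above 10 with the replicate mean above 10; inconclusive = replicate mean below 10 yet half the replicates above 10; inactive = over half of replicates below 10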;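 note: wells of about 30 µL received 50 nL stock; many hits fall short of the cut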
Calb FLC – C. albicans growth modulation with fluconazole; C. albicans CaCi-2 (fluconazole-resistant clinical isolate) + fluconazole, Alamar Blue growth, 48 h; growth inhibition, % (concentration not given with the values); actives 0.57% (n = 300,000);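 active = most replicates above 75%; inconclusive = exactly half above 75%; inactive = most below 75%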;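 note: all wells also contain fluconazole at 8 µg/ml as a sub-toxic cotreatment; 0% = median of DMSO wells and 100% = median of geldanamycin control wells; wells of about 8 µL received 7.5 nL stock; the first replicate is given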
Vif A3G – inhibitors of Vif binding to APOBEC3G peptide, primary screen, biochemical, TR-FRET, GST-Vif 1-94, biotin-A3G peptide, dose response retest (AID 1117319); TR-FRET GST-Vif / biotin-A3G peptide binding; higher % means a stronger effect; test concentration not given here; strong numbers were not always called active; inhibition, %; hits with a dose series show IC50 in µM; actives 0.57% (n = 260,000);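 active = above the screen mean plus three standard deviations and confirmed in dose response; inconclusive = results disagree or hit not tested in dose response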;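 note: Vif residues 1-94 fused to GST binding biotinylated APOBEC3G peptide 110-148; 0% = full assay without inhibitor and 100% = GST in place of GST-Vif; retest series ran down from 100 µM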
Beta cell apopt – blocks beta cell apoptosis; INS-1E cytokine-induced death, ATP luminescence, 48 h; percent of positive-control rescue, neutral wells zero; protection from apoptosis, % (no concentration beside the values); AID 435005; actives 0.8% (n = 300,000);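 active = all replicates at 75% or more, or half of them and the mean; inconclusive = half reach 75% but not the mean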;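 note: 0% = cytokine-treated negative control wells and 100% = positive control rescue; higher means more ATP so stronger rescue from cytokine killing; wells of about 40 µL received 100 nL stock; the first replicate is given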
RanGTP-Imp inh – inhibitors of RanGTP-importin-beta interaction, primary screen, biochemical, FRET, CFP-Ran, YFP-importin-beta, homogeneous; actives 1.1% (n = 300,000); inhibition, % (concentration not given with the values); AID 2216; cell-free CFP-Ran/YFP-importin-beta FRET ratio;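 active = most replicates above 15%; inconclusive = exactly half above 15%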;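 note: 0% = DMSO wells and 100% = Ran loaded with GDP instead of GTP; wells of about 40 µL received 100 nL stock; the first replicate is given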
T cruzi repl – blocks replication of Trypanosoma cruzi. AID 1885. inhibition, % (test concentration not listed). actives 1.4% (n = 300,000). T. cruzi beta-gal in NIH3T3, luminescence, 90 h;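 active = mean inhibition across valid replicates above about 55%, limit read from the data; inconclusive = mean below that limit but half or more replicates reach it; inactive = mean below it, under half of replicates reach it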;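 note: signal also drops with host cell toxicity which is not excluded here; 0% = plate median of DMSO wells and 100% = zero luminescence signal; higher percent means less beta-gal luminescence so fewer parasites; stock transfer was 50 nL into about 50 µL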
Ecoli rRNA inh – selective bacterial rRNA inhibition in E. coli; actives 1.6% (n = 350,000); E. coli WT GFP vs humanized-ribosome RFP mutants, fluorescence, 24 h; stronger effect = lower value; DMSO median 0, no signal -100; GFP signal change (wild-type ribosome), % (test concentration not listed); AID 720706;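 active = significant combined selectivity score with lowered wild-type GFP, culture density cut under 30%, mutant RFP and density less affected; inactive = any of these conditions unmet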; note: one replicate is shown; some compounds called inactive have numbers as strong as hits
Ecoli rRNA inh OD600 – second read-out of Ecoli rRNA inh, no call of its own (marks repeat the call); OD600 change, %; measured here: OD600 growth;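 optical density of the mix in the first replicate; 0 = DMSO median and -100 = no signal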
Ecoli rRNA inh RFP – recorded beside Ecoli rRNA inh, whose call it bears; RFP signal change, %; measured here: RFP humanized mutant strains;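 first replicate; 0 = DMSO median and -100 = no signal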
Active calls of the source: *; ? = inconclusive; / = not tested or not shown; & = joins results of further samples. This is a subset; the hit share may differ from the screen's.

Values run as follows: MLL AF4-AF9 inh, A1 inh, Calb FLC, Vif A3G, Beta cell apopt, RanGTP-Imp inh, T cruzi repl, Ecoli rRNA inh, Ecoli rRNA inh OD600, Ecoli rRNA inh RFP
1. O=C(CCc1nnc(CCCc2ccccc2)o1)NCCc1ccccc1
    -6.1, -0.3, -2, -4%, -3, ?, 5, 2, 0, 0.0
2. CN1CCN(C(=O)c2ccccc2NC(=O)c2ccccc2Br)CC1
    -2.3, 1.4, 8, /, -4, 2.4, 0, 7, 11, -1.3
3. Cc1ccc(N(C)C(=O)n2cnc3ccccc32)cc1
    -1.0, -0.1, -6, 2%, -9, 0.9, -6, 4, 2, -1.6
4. COc1ccc(OC)c(NC(=S)N(CCc2c(C)[nH]c3ccccc23)Cc2cccs2)c1
    -0.5, -0.4, 3, 9%, -8, -3.3, 34, 6, 10, 3.8
5. CC(C)OP(=O)(OC(C)C)C(Nc1ccccc1)c1ccccc1C(F)(F)F (centres undefined)
    0.5, 0.8, 8, /, 8, -3.5, 9, /, /, /
6. O=C(CSc1nnnn1C1CCCC1)Nc1ccccc1F
    -4.4, 0.7, 5, /, -5, -4.1, 4, -1, -11, -5.6
7. O=C(CCn1nnc2ccccc21)N1CCN(c2ccccc2)CC1
    /, -0.2, -4, 1%, 4, 3.1, -2, /, /, /
8. CCCCOC(=O)C(C#N)c1nc2ccccc2nc1N1CCN(Cc2ccc3c(c2)OCO3)CC1 (centres undefined)
    /, -0.2, -17, 16%, -5, /, /, /, /, /
9. COc1ccc(CCNC(=O)c2cc3c(=O)n4ccccc4nc3n(CCCN3CCOCC3)c2=N)cc1
    -0.8, -0.4, -5, /, 15, 20*, 29, -1, 2, -0.1
10. CCC(CC)C(=O)Nc1cc([N+](=O)[O-])ccc1F
    /, 0.0, -14, 5%, -10, 2.4, -22, /, /, /
11. Cc1cccc(NC(=S)N/N=C2/CCCCc3ccccc32)c1
    /, 0.5, -4, /, 26, -1.3, 29, /, /, /
12. COc1cc(NC(=S)N2CCN(C)CC2)cc(OC)c1
    -2.0, -0.7, -38, /, 1, 6.7, 5, 4, 5, -2.9
13. COc1ccc(NC(=O)CN(C)C(=O)c2ccc(-c3cccc(C(F)(F)F)c3)o2)cc1
    -2.6, -0.1, -3, /, -4, 0.9, 9, 6, 2, -1.8
14. COCc1cc(C)nc(NCCc2ccccc2)c1C#N
    /, 0.6, -15, 7%, 0, 1.7, 9, /, /, /
15. O=C(C[n+]1ccc(-c2cc(C(=O)Nc3cccc(C(F)(F)F)c3)c3ccccc3n2)cc1)c1cccc([N+](=O)[O-])c1
    1.5, -0.2, -8, 4%, -2, ?, 19, -9, 7, -1.1
16. CCn1c(SCc2nc3sc(C(=O)O)c(C)c3c(=O)[nH]2)nnc1-c1ccc(Cl)cc1
    -2.6, 0.6, 3, 5%, -8, 2.4, -16, -18, -16, -2.6
17. COc1ccc(NC(=O)CSc2nc3ccccc3c(=O)n2CCNC(C)=O)c(OC)c1
    /, 0.4, ?, -11%&-5%, /, -0.7, -20, 3, 6, 4.7
18. O=C(Nc1cc(=O)[nH]c2ncnn12)c1ccc(Cl)cc1Cl
    /, -8.8, -3, 4%, -6, -1.6, -7, /, /, /
19. O=C(O)C1CCCC2CN3CCc4c([nH]c5ccccc45)C3C(O)C21 (centres undefined)
    7.4, 0.0, -3, 7%, 0, 30*, -7, 21, 15, 20
20. CCn1c(SCC(=O)Nc2ccccc2OC)nc2ccccc2c1=O
    /, -0.3, 7, -4%, -3, -1.2, 1, /, /, /
21. COc1cc(-c2nc3ccccn3c2N)ccc1O
    2.4, -1.8, 13, /, -1, -3.9, 2, 0, 6, -2.4
22. Oc1ccc(NC(=S)Nc2ccc(O)cc2)cc1
    -1.0, 0.2, -9, /, 1, -3.1, -17, 13, 8, 4.9
23. Cn1cnc2nc3n(c2c1=O)CCC3
    /, 0.6, -11, 19%, -2, 3.5, -9, /, /, /
24. O=C(COc1ccccc1Cl)NCCCNC(=O)c1cnccn1
    0.1, 0.3, 20, /, -1, 4.4, -19, 4, 0, 0.7
25. Cc1ccc(C)c(CNS(=O)(=O)c2c(C)[nH]c(C)c2C(=O)N2CCCC2)c1
    1.1, -0.4, 31, -7%, -8, -3.1, -3, 4, 9, -1.8
26. CC(C)c1ccc(/C=N/NC(=O)c2nnn(-c3nonc3N)c2CSC2=NCCS2)cc1
    /, -0.1, 10, -3%, 8, 7.6, 2, /, /, /
27. C/C(=C\C(=O)c1ccccc1)Nc1ccc(Cl)c(Br)c1
    /, 0.1, -31, -8%, 1, -3.9, -6, /, /, /
28. O=C(CSCc1ccc([N+](=O)[O-])cc1)Nc1ccccc1C(=O)O
    -9.4, 0.7, -4, 2%, -4, -2.5, -17, 9, 1, -2.1
29. CCCC(=O)c1ccc(N2CCN(C(=O)c3ccc(Br)cc3)CC2)c(F)c1
    /, 0.4, -14, 8%, 2, -1.1, 7, /, /, /
30. O=C(Nc1ccccc1C(=O)Nc1ccccn1)c1cc(F)c(F)cc1Cl
    -7.6, -0.2, 0, /, /, -2.7, -2, 8, 7, -0.4

As entered above.
Reading of COc1ccc(NC(=O)CSc2nc3ccccc3c(=O)n2CCNC(C)=O)c(OC)c1 in RanGTP-Imp inh: -0.7
Reading of O=C(Nc1cc(=O)[nH]c2ncnn12)c1ccc(Cl)cc1Cl in Calb FLC: -3

Further entries.
Values run as follows: MLL AF4-AF9 inh, A1 inh, Calb FLC, Vif A3G, Beta cell apopt, RanGTP-Imp inh, T cruzi repl, Ecoli rRNA inh, Ecoli rRNA inh OD600, Ecoli rRNA inh RFP
31. Cc1cccc(OCc2nnc(SCc3nc4cc(C(F)(F)F)ccc4c(=O)[nH]3)o2)c1
    /, -1.8, -5, 6%, 0, -0.7, -4, /, /, /
32. O=C(Nc1cccc(S(=O)(=O)N2CCCCC2)c1)C1=NN(c2ccccc2)C(=O)CC1
    4.5, -0.6, /, 1%, 9, /, /, -5, -1, 3.9
33. Cc1ccccc1OCCN1C(=O)C(=O)c2cccc(C)c21
    /, 1.9, 22, /, /, 2.2, 9, /, /, /
34. COc1ccc(NC(=O)Nn2cnnc2)cc1OC
    0.5, 0.1, -2, /, -16, 6.7, 5, 7, 19, -1.3
35. CCOC(=O)C1CCCN(C(=O)c2ccc([N+](=O)[O-])c(C)c2)C1 (centres undefined)
    /, 0.3, -3, -3%, /, -2.3, -12, /, /, /
36. COc1ccc(NS(=O)(=O)c2cccc(Cl)c2Cl)cc1S(=O)(=O)N1CCCCC1
    2.5, -0.1, 0, 76µM*, 11, -2.0, -5, -35*, -21*, -2.2*
37. O=C(O)c1cccc(O)c1O
    -3.0, 2.4, /, /, -5, 5.4, ?, /, /, /
38. CCOc1ccc(C(C)C)cc1S(=O)(=O)N1CCN(C(=O)c2ccco2)CC1
    -0.6, -1.7, 9, -4%, 2, -9.4, 3, -18, -13, -7.4
39. CCCCN(Cc1cc2ccccc2[nH]c1=O)S(=O)(=O)c1ccc(C)cc1
    -1.0, 0.8, -3, -7%, 5, 2.3, 29, -14, -25, -5.3
40. CC1CC(C)CN(CCCNC(=O)Cn2ncc3c(=O)oc4ccccc4c32)C1 (centres undefined)
    -4.6, 0.2, -8, 1%, -11, 0.2, 7, 8, 15, -0.9
41. Clc1ccc(-n2nnc(-c3nccs3)n2)cc1Cl
    -2.2, -11, -24, -14%, -21, 1.7, -25, 2, 21, -1.0
42. CCCCn1nc2cc(C(=O)NCc3ccc(C(F)(F)F)cc3C(F)(F)F)ccc2c1OCC
    0.6, -0.7, 1, 5%, 1, 2.2, 36, 8, 6, -7.1
43. Cc1ccc(N(Cc2ccc([N+](=O)[O-])cc2)C(=O)c2ccco2)cc1
    /, 0.6, 25, -9%, 2, -0.2, 7, /, /, /
44. CSCC(=O)Nc1nc(-c2ccc3c(c2)OCCO3)cs1
    2.7, -3.4, -5, 13%, /, -4.0, 40, -38, -48, -7.2
45. O=S(=O)(Nc1cccc2c1ccc1cccn12)c1cccs1
    /, -0.3, 7, 2%, -17, -1.9, -5, /, /, /
46. Cc1c2ccccc2nc2c(F)c(NC(C)C)c(F)c(F)c12
    /, 0.3, -1, /, -6, -75, -25, /, /, /
47. Cc1nc(CC(=O)N2CCN(S(=O)(=O)c3ccccc3C#N)CC2)cs1
    /, 1.0, 10, 0%, -10, -3.2, -5, /, /, /
48. Cc1ccc(OCCC(=O)OC(C)C(=O)NC2CC2)cc1 (centres undefined)
    -31, 1.4, 2, -6%, 1, -0.5, -16, 6, 2, -4.7
49. CC(C)(C)CN1CCC(Oc2cccc(C(=O)NCCCOc3cccnc3)c2)CC1
    -0.7, -0.1, -9, /, 105*, 11, -18, 9, 5, 4.4
50. CCN1C(=O)C(=O)N(CC(=O)Nc2cccc(C(F)(F)F)c2)C1=O
    -9.6, -1.6, /, -9%, -5, /, /, -1, 8, -1.0
51. Cc1cccc(N2CCN(C(=O)CS(=O)(=O)Cc3nc(-c4ccccc4F)oc3C)CC2C)c1 (centres undefined)
    -1.7, 0.2, 0, 0%, -3, 0.9, -2, -4, -37, 4.2
52. CCN(CC(=O)Nc1ccc(NC(C)=O)cc1)C(=O)Cc1ccccc1F
    -2.9, -0.1, -10, /, -6, 0.4, 0, 10, 28, 0.7
53. CN(Cc1ccccc1)c1nc(CN2CCOCC2)nc2scc(-c3ccccc3)c12
    /, 1.0, -11, 8%, 0, ?, 1, /, /, /
54. CN=C(NC(=O)Nc1c(C)cccc1C)NC(=O)Nc1c(C)cccc1C
    0.8, -0.1, 0, -1%, -9, -3.5, 32, 3, 1, 10.0
55. O=C(Nc1cc(C(F)(F)F)ccc1F)C1CCCCC1
    3.6, -0.1, 4, 10%, -2, -1.0, -2, /, /, /

Records listed above that bear a hit mark in Vif A3G.
cpd | SMILES | MLL AF4-AF9 inh | Vif A3G | RanGTP-Imp inh | Ecoli rRNA inh | Ecoli rRNA inh OD600 | Ecoli rRNA inh RFP
36 | COc1ccc(NS(=O)(=O)c2cccc(Cl)c2Cl)cc1S(=O)(=O)N1CCCCC1 | 2.5 | 76µM* | -2.0 | -35* | -21* | -2.2*
